High-throughput results deposited in PubChem BioAssay by several laboratories.
LANA-H2A inh – blocks KSHV LANA binding to histone H2A/H2B; Q9QR71; cell-free LANA-H2A/H2B peptide, fluorescence polarization; inhibition, % (no concentration beside the values); 320,000 compounds, 0.6% hits; AID 2629; in the data active means inhibition mostly above about 10%, no sharp cut-off; inactive means mostly below about 6.7%;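 further: stock transfer was 7.5 nL into about 10 µL; 0% = median of vehicle wells and 100% = median of positive control wells; one replicate is shown; the record names a cut of 25% in any replicate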
Beta2AR agonist – activates human beta-2 adrenergic receptor causing internalization; P07550; Am2.2-beta2AR cells, FAP receptor internalization, flow cytometry; reference of the scale not given here; response, % (concentration not given with the values); 340,000 compounds, 0.43% hits;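 active means response above a set limit, near 3 SD of response in nonfluorescent compounds, cut at about 42% in these data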;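 further: stock transfer was 100 nL into about 11 µL; a reference agonist was the positive control; negative values mostly stem from fluorescent compounds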
Target sequence (P07550 whole entry, looked up): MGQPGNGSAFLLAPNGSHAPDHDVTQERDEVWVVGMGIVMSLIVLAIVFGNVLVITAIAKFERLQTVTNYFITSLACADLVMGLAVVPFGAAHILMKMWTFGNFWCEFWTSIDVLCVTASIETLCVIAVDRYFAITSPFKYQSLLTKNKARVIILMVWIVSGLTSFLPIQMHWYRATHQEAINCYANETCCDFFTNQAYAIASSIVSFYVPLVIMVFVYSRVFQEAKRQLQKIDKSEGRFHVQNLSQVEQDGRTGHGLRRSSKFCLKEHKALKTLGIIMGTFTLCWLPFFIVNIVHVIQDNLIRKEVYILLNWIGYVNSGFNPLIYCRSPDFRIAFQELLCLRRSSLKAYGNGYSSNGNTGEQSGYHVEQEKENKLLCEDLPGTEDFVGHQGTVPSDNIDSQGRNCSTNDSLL
T cruzi repl – T. cruzi replication inhibition | 300,000 compounds, 1.4% hits | T. cruzi beta-gal in NIH3T3, luminescence, 90 h | AID 1885 | inhibition, % (test concentration not listed);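 active means mean inhibition across valid replicates above about 55%, limit read from the data; inconclusive means mean below that limit but half or more replicates reach it; inactive means mean below it, under half of replicates reach it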;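 further: signal also drops with host cell toxicity which is not excluded here; 0% = plate median of DMSO wells and 100% = zero luminescence signal; higher percent means less beta-gal luminescence so fewer parasites; stock transfer was 50 nL into about 50 µL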
Beta cell apopt – beta cell apoptosis inhibition. 300,000 compounds, 0.8% hits. AID 435005. protection from apoptosis, % (test concentration not listed). INS-1E cytokine-induced death, ATP luminescence, 48 h; percent of positive-control rescue, neutral wells zero;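 active means all replicates at 75% or more, or half of them and the mean; inconclusive means half reach 75% but not the mean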;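 further: 0% = cytokine-treated negative control wells and 100% = positive control rescue; higher means more ATP so stronger rescue from cytokine killing; wells of about 40 µL received 100 nL stock; the first replicate is given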
Calb FLC – affects C. albicans growth with fluconazole. C. albicans CaCi-2 (fluconazole-resistant clinical isolate) + fluconazole, Alamar Blue growth, 48 h. 300,000 compounds, 0.57% hits. growth inhibition, % (concentration not given with the values);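 active means most replicates above 75%; inconclusive means exactly half above 75%; inactive means most below 75%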;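 further: all wells also contain fluconazole at 8 µg/ml as a sub-toxic cotreatment; 0% = median of DMSO wells and 100% = median of geldanamycin control wells; wells of about 8 µL received 7.5 nL stock; the first replicate is given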
A1 inh – inhibitors of the anti-apoptotic protein A1, read as caspase activation | MEF A1-2A-BIM cells, Caspase-Glo 3/7 luminescence, 3 h; percent of clofoctol response, vehicle zero | caspase activation, % (no concentration beside the values) | 330,000 compounds, 0.066% hits | AID 2462;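 active means over half of replicate activation scores above 10%, or exactly half above 10 with the replicate mean above 10; inconclusive means replicate mean below 10 yet half the replicates above 10; inactive means over half of replicates below 10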;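 further: wells of about 30 µL received 50 nL stock; many hits fall short of the cut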
ALR H2O2 inh – human ALR oxidase inhibition via reduced H2O2 | purified ALR, DTT oxidation, H2O2 HRP-luminol luminescence | inhibition, % (test concentration not listed) | 290,000 compounds, 3.8% hits;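 active means mean and each replicate at 75% or more; inconclusive means only one of the two met; inactive means neither met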;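 further: stock transfer was 7.5 nL into about 7.5 µL; 0% = neutral wells and 100% = wells with inactivated enzyme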
Target sequence (P55789 whole entry, looked up): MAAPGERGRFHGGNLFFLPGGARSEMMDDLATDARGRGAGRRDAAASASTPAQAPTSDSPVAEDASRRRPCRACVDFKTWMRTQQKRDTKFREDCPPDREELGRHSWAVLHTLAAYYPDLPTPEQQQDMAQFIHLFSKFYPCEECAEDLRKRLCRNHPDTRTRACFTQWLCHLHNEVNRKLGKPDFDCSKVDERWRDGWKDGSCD
Ecoli rRNA inh – selective bacterial rRNA inhibition in E. coli; E. coli WT GFP vs humanized-ribosome RFP mutants, fluorescence, 24 h; active compounds read low; DMSO median 0, no signal -100; GFP signal change (wild-type ribosome), % (test concentration not listed); 350,000 compounds, 1.6% hits; AID 720706;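 active means significant combined selectivity score with lowered wild-type GFP, culture density cut under 30%, mutant RFP and density less affected; inactive means any of these conditions unmet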; further: one replicate is shown; some compounds called inactive have numbers as strong as hits
Ecoli rRNA inh OD600 – further read-out of Ecoli rRNA inh, marked with its call; OD600 change, %; measured here: OD600 growth;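 optical density of the mix in the first replicate; 0 = DMSO median and -100 = no signal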
Ecoli rRNA inh RFP – further read-out of Ecoli rRNA inh, marked with its call; RFP signal change, %; measured here: RFP humanized mutant strains;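 first replicate; 0 = DMSO median and -100 = no signal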
* marks the source's active call; other numbers are inactive results; ? = inconclusive; · = no result given. Only part of the results is shown; the hit share may differ from the screen's.

SMILES | LANA-H2A inh | Beta2AR agonist | T cruzi repl | Beta cell apopt | Calb FLC | A1 inh | ALR H2O2 inh | Ecoli rRNA inh | Ecoli rRNA inh OD600 | Ecoli rRNA inh RFP
COC(=O)CNC(=O)C(C)NC(=O)CNC(=O)OCc1ccccc1 (centres undefined) | -3.4 | -3 | 6 | -6 | -24 | -0.4 | -4 | · | · | ·
Nc1nnc(Cc2ccc(Cl)cc2Cl)s1 | 1.8 | -3 | -3 | 2 | -2 | 0.1 | 0 | · | · | ·
COc1cc2c(cc1OC)CN(c1ccc([N+](=O)[O-])cc1Cl)CC2 | -2.2 | -4 | 25 | 5 | 3 | -0.1 | · | -17 | -18 | 0.5
CC12COC3(C(=O)Nc4ccc(F)cc4)CC1CCC32C (centres undefined) | 0.6 | 0 | 22 | -8 | 2 | 0.9 | · | · | · | ·
Cc1ccc(NC(=O)c2ccc(CN3CC(=O)N4CCCCC4C3=O)cc2)c(C)c1 (centres undefined) | 3.6 | 3 | 7 | 2 | 0 | 0.3 | 18 | 2 | 9 | -5.3
COCCNC(=S)N1CCc2cc(OC)c(OC)cc2C1COc1ccc(F)cc1 (centres undefined) | 0.3 | -1 | 6 | 0 | 19 | -0.7 | -2 | 11 | 12 | 3.5
COc1ccc(OC)c(-c2nc(C(=O)NCC3CCCO3)cc3c2[nH]c2ccccc23)c1 (centres undefined) | 4.4 | 0 | 33 | -2 | 19 | 0.1 | -7 | · | · | ·
O=C(NC1(O)C(=O)c2ccccc2C1=O)c1ccc(C(F)(F)F)cc1 | 1.0 | -6 | -5 | -6 | -8 | 0.2 | 36 | 8 | 5 | -0.4
CCN(c1ccccc1)S(=O)(=O)c1ccc(Cl)c(C(=O)OCC(=O)c2[nH]c(C)c(C(C)=O)c2C)c1 | -1.5 | -2 | -1 | 3 | -1 | 0.8 | -5 | -14 | -26 | -13
CC(C)C(NC(=O)c1ccc(Cl)cc1)C(=O)O (centres undefined) | 0.5 | -4 | -10 | -13 | 1 | -0.4 | 37 | · | · | ·
O=C(Cn1nc(-c2ccc(Cl)cc2)c2ccccc2c1=O)NN1CCOCC1 | -4.3 | -8 | -1 | -2 | 3 | 0.9 | 3 | 12 | 0 | 2.4
CC/C(=N\NC(=O)c1c(-c2ccccc2)noc1C)c1ccc(C)o1 | -4.0 | -10 | 3 | -5 | -1 | 1.4 | -6 | · | · | ·
COc1ccc(CCNC(=O)CCCn2ncn3c(cc4occc43)c2=O)c(OC)c1 | 2.0 | -16 | 5 | -8 | -22 | -0.1 | 0 | 5 | 13 | 15
Cn1cnnc1SCCC(=O)Nc1ccc(Cl)cc1 | -6.9 | -2 | -14 | -2 | -10 | 0.7 | -6 | · | · | ·
COc1ccc(CNC(=O)C(C)N2C(=O)COc3ccc(C)cc32)c(OC)c1 (centres undefined) | -3.0 | 1 | 9 | 2 | -10 | -0.1 | -6 | 1 | 10 | 3.0
CCOC(=O)c1ccc(Nc2ccc([N+](=O)[O-])cn2)cc1 | 0.4 | 27 | -6 | 3 | -21 | -1.8 | -2 | 8 | 7 | 12
CC1=C(C)CC(C(=O)NCc2ccccn2)C(C(=O)O)C1 (centres undefined) | -2.3 | -6 | 3 | -5 | 3 | -0.1 | -23 | 9 | 17 | -0.5
O=C(COc1ccccc1)N=C1SC2CS(=O)(=O)CC2N1CCc1ccccc1 (centres undefined) | -1.2 | -15 | 3 | -5 | 0 | 0.0 | -2 | 13 | 7 | 0.0
CC12CCC(C(=O)N(CCCN3CCN(Cc4ccccc4)CC3)C1=O)C2(C)C (centres undefined) | -2.5 | -5 | · | 3 | -2 | -0.9 | -13 | 17 | 8 | 4.7
CCOC(=O)CSc1nc2ccc(Nc3nc(N4CCOCC4)nc(N4CCOCC4)n3)cc2s1 | 1.1 | 15 | 12 | 1 | 16 | 1.8 | 99* | · | · | ·
CCCCC(=O)NCCNc1nc2c(c(=O)n(C)c(=O)n2C)n1Cc1ccccc1 | 3.0 | -4 | -3 | -1 | 14 | -0.1 | 4 | · | · | ·
COc1cc(C(=O)Nc2nnc(C)s2)cc(OC)c1OC | 2.4 | 1 | -5 | -6 | -1 | 0.2 | 3 | 4 | 12 | -2.8
O=C(O)c1[nH]c2ccccc2c1NS(=O)(=O)c1ccc(F)cc1 | 1.6 | 0 | -17 | -2 | · | 0.0 | 94* | 2 | 3 | -5.1
Cc1cc(NC(=O)CCC(=O)N(c2ccccc2)C(C(=O)NC2CCCC2)c2ccccc2F)no1 (centres undefined) | 4.3 | -6 | 12 | -4 | 4 | 0.2 | · | -6 | -22 | -1.1
NNc1nnnc2c1sc1nc(N3CCOCC3)c3c(c12)CCCC3 | -1.9 | · | 8 | 4 | -2 | 0.0 | 19 | · | · | ·

Another view of some results above.
mol	LANA-H2A inh	Beta2AR agonist	T cruzi repl	Beta cell apopt	Calb FLC	A1 inh	ALR H2O2 inh	Ecoli rRNA inh	Ecoli rRNA inh OD600	Ecoli rRNA inh RFP
CCOC(=O)c1ccc(Nc2ccc([N+](=O)[O-])cn2)cc1	0.4	27	-6	3	-21	-1.8	-2	8	7	12
CC1=C(C)CC(C(=O)NCc2ccccn2)C(C(=O)O)C1 (centres undefined)	-2.3	-6	3	-5	3	-0.1	-23	9	17	-0.5
O=C(COc1ccccc1)N=C1SC2CS(=O)(=O)CC2N1CCc1ccccc1 (centres undefined)	-1.2	-15	3	-5	0	0.0	-2	13	7	0.0
CC12CCC(C(=O)N(CCCN3CCN(Cc4ccccc4)CC3)C1=O)C2(C)C (centres undefined)	-2.5	-5	·	3	-2	-0.9	-13	17	8	4.7
CCOC(=O)CSc1nc2ccc(Nc3nc(N4CCOCC4)nc(N4CCOCC4)n3)cc2s1	1.1	15	12	1	16	1.8	99*	·	·	·
CCCCC(=O)NCCNc1nc2c(c(=O)n(C)c(=O)n2C)n1Cc1ccccc1	3.0	-4	-3	-1	14	-0.1	4	·	·	·
COc1cc(C(=O)Nc2nnc(C)s2)cc(OC)c1OC	2.4	1	-5	-6	-1	0.2	3	4	12	-2.8
O=C(O)c1[nH]c2ccccc2c1NS(=O)(=O)c1ccc(F)cc1	1.6	0	-17	-2	·	0.0	94*	2	3	-5.1
Cc1cc(NC(=O)CCC(=O)N(c2ccccc2)C(C(=O)NC2CCCC2)c2ccccc2F)no1 (centres undefined)	4.3	-6	12	-4	4	0.2	·	-6	-22	-1.1
NNc1nnnc2c1sc1nc(N3CCOCC3)c3c(c12)CCCC3	-1.9	·	8	4	-2	0.0	19	·	·	·

(more compounds)
SMILES | LANA-H2A inh | Beta2AR agonist | T cruzi repl | Beta cell apopt | Calb FLC | A1 inh | ALR H2O2 inh | Ecoli rRNA inh | Ecoli rRNA inh OD600 | Ecoli rRNA inh RFP
O=C(NCCO)/C(=C\c1ccc([N+](=O)[O-])o1)NC(=O)c1ccccc1 | -0.2 | 3 | 37 | · | 43 | 2.8 | -90 | 16 | 16 | 9.1
COc1ccc(N2CCCCn3c2nc2c3c(=O)n(C)c(=O)n2C)cc1 | -4.2 | 4 | -8 | 1 | -19 | -0.8 | -1 | · | · | ·
CCOC(=O)C(C)N1N=C(/C=C/c2ccc(C)cc2)CCC1=O (centres undefined) | -2.0 | 3 | -2 | 0 | -2 | -0.1 | 2 | · | · | ·
O=C(NC(=S)Nc1ccc(CN2CCOCC2)cc1)c1cccc(F)c1 | · | -10 | -3 | · | -5 | · | · | -7 | 0 | 2.4
CSc1cc(C)nc(N(C)C(C)=O)n1 | 2.0 | 4 | -8 | -5 | 6 | 2.4 | 4 | 19 | 17 | -2.8
CC(C)Oc1ccc(C(=O)NC2CCS(=O)(=O)C2)cc1 (centres undefined) | -5.2 | 9 | -6 | -2 | -2 | 0.2 | 0 | 6 | 7 | -3.3
CN(C)c1cccc(C(=O)NCc2ccc3c(c2)OCO3)c1 | 0.0 | 2 | 12 | · | -17 | -1.6 | -13 | -2 | -3 | 5.7
O=C(CSc1nnc(NC(=O)c2ccco2)s1)Nc1ccc(F)cc1 | 0.6 | -2 | 5 | 4 | -3 | 1.0 | · | 4 | 9 | -0.1
O=C(N/N=C/c1cccc2ccccc12)c1ccc(CN2CCOCC2)cc1 | 3.1 | 7 | -3 | -1 | 2 | 0.0 | 34 | -4 | 0 | 0.8
O=C(NCc1ccco1)C1CCN(C(=O)Cc2ccccc2)CC1 | -0.3 | 4 | · | -9 | -1 | -0.4 | 0 | · | · | ·
CC(C)(C)c1ccc(C(=O)NNC(=S)NC(=O)c2cccnc2)cc1 | 2.4 | 0 | 29 | 62 | 7 | 0.3 | ? | -57 | -81 | -17
Cc1ccc(CNC(=O)CN2CCC(C(N)=O)CC2)cc1 | 1.3 | 4 | -9 | -1 | ? | -0.2 | -5 | · | · | ·
COc1ccc(/C=N/Nc2ccc(C(F)(F)F)cc2[N+](=O)[O-])cc1O | -4.3 | -16 | 5 | 11 | 27 | 0.0 | -2 | · | · | ·
COC(=O)C1=C(C)N(C)C(=S)NC1c1c(OC)ccc2ccccc12 (centres undefined) | 1.6 | -2 | -12 | -1 | 10 | 0.2 | -6 | 9 | 8 | -1.3
CCN1/C(=C/c2cccc[n+]2C)Sc2ccc(OC)cc21 | -37 | -190 | 70* | 105* | 99* | -0.7 | 98* | 30 | -62 | -25
COc1ccc(C(=O)NCCCNC(=O)c2cc3ccccc3[nH]2)cc1OC | -4.2 | 13 | -9 | -3 | -4 | 0.6 | · | -1 | 0 | 4.8
O=C(Nc1cccc(F)c1)/C(=C/c1ccco1)NC(=O)c1ccco1 | 2.1 | 9 | 7 | 2 | -2 | 1.3 | 13 | 69 | 6 | 17
C/C(Cc1ccccc1)=N\NC(=O)CNC(=O)c1ccc(Cl)cc1Cl | -0.4 | -7 | 2 | -8 | -3 | -0.8 | · | 5 | 3 | -0.8
Nc1nncn1C(=O)c1cccs1 | 1.7 | 2 | · | -4 | · | 0.2 | 8 | · | · | ·
O=C(O)C[C@H]1c2cc(C(F)(F)F)ccc2S(=O)(=O)N1Cc1ccccc1 | 8.6 | 4 | -6 | 5 | 25 | 0.3 | · | -4 | 1 | 7.7
CCN(CC1CCCO1)C(=O)c1cc(COc2cc(C)c(Cl)c(C)c2)on1 (centres undefined) | · | 6 | 20 | · | -28 | · | · | -1 | -32 | -6.1
COc1ccccc1N1CCN(C(CNS(=O)(=O)c2cccs2)c2cccnc2)CC1 (centres undefined) | 0.8 | 0 | 47 | -1 | -1 | 1.0 | 47 | -4 | -5 | 0.9
C=CCn1c(CCNC(=O)c2ccc(Cl)c(Cl)c2)nnc1SCCOc1ccc(OC)cc1 | -3.1 | -8 | 5 | 15 | -13 | -1.1 | 0 | -8 | 4 | -5.2
